# Beta apoptosis: inhibitors of cytokine-induced beta cell apoptosis, primary screen, luminescence | INS-1E cytokine-induced death, ATP luminescence, 48 h; percent of positive-control rescue, neutral wells zero | protection from apoptosis, % (concentration not given with the values) | 0.8% of 300,000 active | AID 435005, 2010;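 active = all replicates at 75% or more, or half of them and the mean; inconclusive = half reach 75% but not the mean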;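 note: 0% = cytokine-treated negative control wells and 100% = positive control rescue; higher means more ATP so stronger rescue from cytokine killing; wells of about 40 µL received 100 nL stock; the first replicate is given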
# T cruzi inh: inhibitors of intracellular T. cruzi growth, primary screen, luminescence, NIH3T3 host cells; inhibition, % (concentration not given with the values); AID 1885, 2009; 1.4% of 300,000 active; T. cruzi beta-gal in NIH3T3, 90 h;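 active = mean inhibition across valid replicates above about 55%, limit read from the data; inconclusive = mean below that limit but half or more replicates reach it; inactive = mean below it, under half of replicates reach it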;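 note: signal also drops with host cell toxicity which is not excluded here; 0% = plate median of DMSO wells and 100% = zero luminescence signal; higher percent means less beta-gal luminescence so fewer parasites; stock transfer was 50 nL into about 50 µL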
# A1 inh: caspase 3/7 activation in MEF A1-2A-BIM cells, primary screen, A1 inhibitor project, cell-based, luminescence, HTS | Caspase-Glo 3/7 luminescence, 3 h; percent of clofoctol response, vehicle zero | 0.066% of 330,000 active | caspase activation, % (concentration not given with the values);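 active = over half of replicate activation scores above 10%, or exactly half above 10 with the replicate mean above 10; inconclusive = replicate mean below 10 yet half the replicates above 10; inactive = over half of replicates below 10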;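 note: wells of about 30 µL received 50 nL stock; many hits fall short of the cut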
# RanGTP-Impb inh: inhibitors of RanGTP-importin-beta interaction, primary screen, biochemical, FRET, CFP-Ran, YFP-importin-beta, homogeneous; AID 2216, 2009; inhibition, % (test concentration not listed); cell-free CFP-Ran/YFP-importin-beta FRET ratio; Ran GTPase (GTP-bound) - importin-beta complex; 1.1% of 300,000 active;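 active = most replicates above 15%; inconclusive = exactly half above 15%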;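 note: 0% = DMSO wells and 100% = Ran loaded with GDP instead of GTP; wells of about 40 µL received 100 nL stock; the first replicate is given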
# UCH37 inh: inhibitors of human UCH37 deubiquitinase, primary screen, biochemical, Ub-AMC cleavage, fluorescence; purified proteasome/UCH37; inhibition, % (test concentration not listed); 0.33% of 330,000 active; AID 588478, 2011;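 active = mean of two replicates above 20%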;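 note: 0% = compound-free wells with enzyme and 100% = wells lacking proteasome; stock transfer was 100 nL into about 20 µL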
# Target sequence (Q9Y5K5 whole entry, looked up): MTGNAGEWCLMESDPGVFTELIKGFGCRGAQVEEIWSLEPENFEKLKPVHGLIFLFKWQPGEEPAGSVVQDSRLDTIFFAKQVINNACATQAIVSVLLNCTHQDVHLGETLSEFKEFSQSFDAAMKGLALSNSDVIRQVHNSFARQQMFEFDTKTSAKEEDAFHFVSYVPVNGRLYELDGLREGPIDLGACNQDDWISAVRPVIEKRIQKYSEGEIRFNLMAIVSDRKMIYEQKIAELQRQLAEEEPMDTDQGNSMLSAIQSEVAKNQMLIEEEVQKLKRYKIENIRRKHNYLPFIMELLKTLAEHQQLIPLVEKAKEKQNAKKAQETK
#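 Schedule: 30 min plus 25 min, room temperature / Material: human UCH37 within purified proteasomes / Technique: AMC fluorescence intensity at 355/460 nm / Buffer or medium: pH 7.4 Tris-HCl (50 mM) with ovalbumin, ATP-MgCl2, DTT / Controls: wells without proteasome as full block, compound-free enzyme plus substrate as uninhibited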
# Calb FLC: C. albicans growth inhibition with fluconazole, primary screen, CaCi-2 strain, Alamar Blue fluorescence; C. albicans CaCi-2 (fluconazole-resistant clinical isolate) + fluconazole, 48 h; growth inhibition, % (test concentration not listed); 0.57% of 300,000 active;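 active = most replicates above 75%; inconclusive = exactly half above 75%; inactive = most below 75%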;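 note: all wells also contain fluconazole at 8 µg/ml as a sub-toxic cotreatment; 0% = median of DMSO wells and 100% = median of geldanamycin control wells; wells of about 8 µL received 7.5 nL stock; the first replicate is given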
# LANA-H2B inh: blockers of LANA interaction with H2A/H2B – biochemical, FP readout, HTS, primary screen; Protein LANA1 (Human herpesvirus 8 type P (isolate GK18)), Q9QR71; cell-free LANA-H2A/H2B peptide, fluorescence polarization; inhibition, % (concentration not given with the values); 0.6% of 320,000 active; AID 2629, 2010; in the data active = inhibition mostly above about 10%, no sharp cut-off; inactive = mostly below about 6.7%;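 note: stock transfer was 7.5 nL into about 10 µL; 0% = median of vehicle wells and 100% = median of positive control wells; one replicate is shown; the record names a cut of 25% in any replicate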
# Beta2AR agonist: beta2AR agonists driving receptor internalization, primary screen, cell-based, FAP fluorogen, flow cytometry. Am2.2-beta2AR cells; reference of the scale not given here. response, % (no concentration beside the values). 0.43% of 340,000 active. AID 504454, 2011;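 active = response above a set limit, near 3 SD of response in nonfluorescent compounds, cut at about 42% in these data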;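 note: stock transfer was 100 nL into about 11 µL; a reference agonist was the positive control; negative values mostly stem from fluorescent compounds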
# Target sequence (P07550 whole entry, looked up): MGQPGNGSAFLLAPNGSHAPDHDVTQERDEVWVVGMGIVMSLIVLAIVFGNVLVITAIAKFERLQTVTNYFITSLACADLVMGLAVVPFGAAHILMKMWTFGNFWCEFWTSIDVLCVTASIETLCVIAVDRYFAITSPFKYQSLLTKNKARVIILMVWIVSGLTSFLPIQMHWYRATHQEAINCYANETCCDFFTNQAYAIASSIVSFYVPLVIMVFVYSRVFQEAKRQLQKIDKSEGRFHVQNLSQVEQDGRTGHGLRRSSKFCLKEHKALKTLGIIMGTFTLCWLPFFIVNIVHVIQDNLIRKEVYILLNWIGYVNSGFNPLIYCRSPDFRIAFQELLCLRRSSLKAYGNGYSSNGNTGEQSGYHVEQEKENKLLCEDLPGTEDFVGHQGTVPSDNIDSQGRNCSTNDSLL
# An asterisk follows results filed as active; ? = inconclusive; . = not tested or not shown. Hits appear at their usual frequency. Share with any hit: about 4.3%.
SMILES,Beta apoptosis,T cruzi inh,A1 inh,RanGTP-Impb inh,UCH37 inh,Calb FLC,LANA-H2B inh,Beta2AR agonist
Cc1cc(NC(=O)C(C)SCC(=O)N(C)CC(=O)Nc2ccccc2Br)no1 (configuration not stated),1,1,-0.1,2.1,5.0,-10,-0.4,-1
O=C(CC1NC(=S)NC1=O)c1ccc(Cl)cc1 (configuration not stated),2,-11,0.0,?,-9.7,-3,-0.4,5
O=C(NCCc1nc(-c2ccccc2Cl)no1)C1CCCCC1,-6,14,0.4,3.6,2.9,-7,-2.6,-5
O=C(NCC(F)(F)F)Nc1cccnc1,-1,.,-0.2,.,2.3,.,-1.8,3
COc1ccc(N(CC(=O)NCc2ccco2)S(C)(=O)=O)cc1OC,-1,-3,0.3,-8.0,6.8,-6,-6.0,-1
CCOc1ccc(N(CC(=O)N2CCc3ccccc32)S(=O)(=O)c2c(C)noc2C)cc1,.,6,0.2,-2.4,5.3,4,-4.4,-4
O=C(C[C@H]1C/C=C\CC[C@@H](Cc2ccc(F)cc2)C(=O)OC[C@H]2CCCN2C1=O)NCCO,-9,.,1.1,.,0.7,.,7.2,-3
CN(c1ccccc1)S(=O)(=O)c1ccc(NC(=O)c2ccccc2C(=O)O)cc1,.,2,0.2,0.9,2.0,-3,-4.1,-4
Cc1ccc(/C=C2\CCn3c2nc2cc(C(=O)O)ccc2c3=O)c(C)c1,-2,-13,-0.4,-0.1,-10,1,2.7,-2
CCOc1ccc(NC(=O)CN(C)C(=O)c2ccccc2-n2cnnn2)cc1OCC,-1,4,-0.4,0.9,1.5,1,0.9,-1
c1ccc(C(c2nnnn2Cc2ccco2)N2CCN(C3CCCC3)CC2)cc1 (configuration not stated),.,-5,-1.0,6.0,1.3,-7,-8.2,12
CCCCn1c(SCC(=O)NC2CC(C)(C)NC(C)(C)C2)nc2cc(S(N)(=O)=O)ccc21,-3,-6,0.3,-0.7,3.4,34,0.2,-3
Cn1nccc1C(=O)Nc1ccn(C23CC4CC(CC(C4)C2)C3)n1,20,2,-0.5,-1.1,0.5,-35,5.5,-5
O=C1c2ccccc2C(=O)N1CCc1csc(-c2ccc(F)cc2)n1,-5,-7,-0.4,?,5.8,6,0.2,2
O=C(NCc1ccc2c(c1)CCO2)Nc1cccc(C(F)(F)F)c1,3,-1,-0.3,6.8,2.3,-3,-4.6,3
CN1c2ccccc2C(=O)/C(=C\Nc2ccc(F)cc2)S1(=O)=O,-4,-7,0.6,2.3,-17,-1,-5.9,-5
O=C(O)CSc1c2c(nc3cc(C(=O)Nc4ccc(F)c(Cl)c4)ccc13)CCCC2,-9,17,1.6,2.4,1.1,-4,-5.2,2
Cc1ccc(NC2=C(Cl)C(=O)OC2OC(=O)c2ccco2)cc1C (configuration not stated),-5,3,0.1,?,3.2,17,-2.0,4
COc1ccccc1NS(=O)(=O)c1cccc(NC(=O)c2nn(C)c(=O)c3ccccc23)c1,-1,.,-0.5,.,-2.1,.,4.0,15
C=CC[n+]1c(-c2ccc(Cl)cc2Cl)csc1Nc1c(C)n(C)n(-c2ccccc2)c1=O,18,32,0.4,-1.1,3.5,27,1.4,5
Nc1nonc1C(=O)N/N=C/c1ccncc1,-5,-6,-2.0,-2.2,.,17,-2.9,-3
CCSc1ccccc1C(=O)Nc1cccnc1,-2,5,-1.2,-3.2,1.2,5,-1.7,-2
CCCCn1c(=O)n(C)c(=O)c2c3c(sc21)COC(C)(C)C3,1,-17,0.8,-1.1,-13,6,-3.7,10
CSCCC(NC(N)=O)C(=O)Nc1ccc2ccccc2c1 (configuration not stated),-15,-9,0.0,-1.5,3.3,-7,2.4,5
Nc1cc(=O)[nH]c(SCC(=O)Nc2cc(S(=O)(=O)N3CCCCCC3)ccc2Cl)n1,-5,.,-1.7,.,0.2,.,0.4,3
CCOC(=O)c1cn2nc(Oc3ccccc3)ccc2n1,-2,-25,-1.1,-0.9,-4.7,11,-3.2,-12
COc1ccc(/C=C/C(=O)NC(=S)N2CCN(C)CC2)cc1,-3,-3,-0.8,?,10,-10,1.4,1
O=C1/C(=C/c2ccc(F)cc2)SC(=S)N1Nc1ncc(C(F)(F)F)cc1Cl,-7,-3,-0.7,2.7,4.5,3,-4.1,7
Cc1ccc(CSCC2Nc3ccc(C(=O)N4CCN(c5cccc(C)c5)C(C)C4)cc3NC2=O)cc1 (configuration not stated),-5,9,0.5,-6.4,.,6,0.8,.
CCn1c(COc2ccccc2)nnc1SCC(=O)c1cccc([N+](=O)[O-])c1,-5,25,0.4,1.3,3.2,7,-0.2,6
CCOC(=O)c1csc(NC(=O)c2ccccc2)n1,0,1,-0.9,-1.3,5.1,4,1.7,0
O=C(O)/C=C/C(=O)N(Cc1ccc2c(c1)OCO2)C1CC(=O)N(CCc2ccccc2)C1=O (configuration not stated),-5,-4,-0.5,8.9,2.0,4,5.2,8
CCN(C[C@H]1N[C@@](C)(C(=O)OC)[C@H]2C(=O)N(C)C(=O)[C@@H]12)C(=O)Nc1ccc(C)cc1,-4,.,-0.4,.,-1.4,.,-0.8,2
CC(C)CNS(=O)(=O)c1ccc(S(=O)(=O)N2CCC(N3CCCCC3)CC2)cc1,-6,3,0.0,0.6,3.1,-12,3.8,-2
Cc1nc2nc[nH]n2c(=O)c1CC(=O)O,-1,-4,-0.1,?,3.9,-9,3.2,2
Cc1noc(NS(=O)(=O)c2ccc(NC(=O)COc3ccc(Cl)cc3Cl)cc2)c1C,6,4,0.1,-3.5,2.9,-4,1.7,-1
CC(=O)c1c(C)[nH]c(C(=O)Nc2cccc(S(=O)(=O)N3CCOCC3)c2)c1C,2,11,1.0,0.7,1.9,-1,1.6,2
CC(C)(C)c1cc(C(=O)NN)n(Cc2ccc(F)cc2)n1,-3,-3,1.6,1.1,3.6,-7,-3.5,3
COc1ccc(N2C(=O)CC(N3CCC(c4nc5ccccc5[nH]4)CC3)C2=O)cc1 (configuration not stated),-3,-12,-0.8,-2.7,2.1,-3,-6.2,5
CSc1sc(-c2n[nH]c(=S)n2C)c2c1C=CCC2,0,0,1.1,-2.5,-1.0,-7,0.8,7

# Five entries out of the list, arranged by formula weight, falling.
SMILES,Beta apoptosis,T cruzi inh,A1 inh,RanGTP-Impb inh,UCH37 inh,Calb FLC,LANA-H2B inh,Beta2AR agonist
O=C(O)/C=C/C(=O)N(Cc1ccc2c(c1)OCO2)C1CC(=O)N(CCc2ccccc2)C1=O (configuration not stated),-5,-4,-0.5,8.9,2.0,4,5.2,8
COc1ccc(/C=C/C(=O)NC(=S)N2CCN(C)CC2)cc1,-3,-3,-0.8,?,10,-10,1.4,1
CSc1sc(-c2n[nH]c(=S)n2C)c2c1C=CCC2,0,0,1.1,-2.5,-1.0,-7,0.8,7
CCOC(=O)c1cn2nc(Oc3ccccc3)ccc2n1,-2,-25,-1.1,-0.9,-4.7,11,-3.2,-12
Nc1nonc1C(=O)N/N=C/c1ccncc1,-5,-6,-2.0,-2.2,.,17,-2.9,-3

# (further entries)
SMILES,Beta apoptosis,T cruzi inh,A1 inh,RanGTP-Impb inh,UCH37 inh,Calb FLC,LANA-H2B inh,Beta2AR agonist
O=C(NC(Cc1ccccc1)C(=O)O)/C(=C/c1cccc([N+](=O)[O-])c1)NC(=O)c1cccc(Br)c1 (configuration not stated),.,2,0.0,1.0,4.7,4,5.0,-3
Cc1ccc(NC(=O)c2cccc(OCc3c(C)noc3C)c2)cc1S(=O)(=O)Nc1ccccc1Cl,13,-2,0.8,-4.2,6.0,38,-0.7,9
Cc1oc2c(C)c3oc(=O)c(CCC(=O)NCCCN4CCCC4=O)c(C)c3cc2c1C,8,6,0.2,0.9,-43,-6,2.5,-4
CCCCCCC1CC(CCc2nc(=S)[nH][nH]2)C(=O)O1 (configuration not stated),-2,-11,1.4,-2.7,0.9,-39,-0.6,3
COC(=O)c1ccccc1S(=O)(=O)NC(=O)c1ccccc1,-5,-5,0.1,2.6,3.9,-19,-1.8,6
COc1cccc(-c2cc(C(=O)Nc3cccnc3Cl)no2)c1,-4,-10,-5.9,0.4,-3.2,-2,-0.4,3
C/C(=N\NC(=O)C1CC1)c1ccccc1O,-18,-19,-0.2,?,.,-2,1.1,-9
CCOc1ccc(-c2cc(NC(=O)c3c(F)cccc3F)c(C(=O)O)s2)cc1,-8,8,-1.0,1.5,2.6,10,-1.3,-4
N#CCC(=O)Nc1ccc(C(=O)OCC(=O)Nc2ccccc2Sc2ccccc2)cc1,-2,17,-0.7,0.4,-0.4,13,-0.5,-3
C(#Cc1ccccc1)Cn1nnc2ccccc21,2,12,-0.7,-3.5,-10.0,3,0.1,-4
Cc1ccc(/C=C/C(=O)O)cc1S(=O)(=O)N(C)CCO,2,-9,-0.3,7.4,2.5,-4,-2.9,6
COc1ccc(Cc2nc3c4c(ncn3n2)Oc2c(ccc3ccccc23)C4c2ccc(OC)c(OC)c2)cc1 (configuration not stated),-2,34,-0.2,2.4,-8.0,-1,-11,-1
CC(NC(=O)c1ccc(C#N)cc1)C1CC2CCC1C2 (configuration not stated),.,-8,0.5,6.0,6.7,-5,-6.0,-5
CC(NC(=O)Cc1ccc(S(=O)(=O)N2CCOCC2)s1)c1ccc(Cl)c(Cl)c1 (configuration not stated),6,3,2.7,-1.1,2.4,4,-3.2,-2
CNC(=S)N1CCN(c2cccc(OC)c2)CC1,1,-24,0.5,5.1,4.5,1,-1.4,-2
CCCn1c(N)c(Sc2ccccc2[N+](=O)[O-])c(=O)n(CCC)c1=O,-2,-8,-0.7,12,3.2,-8,-2.5,-3
CCN(CC)S(=O)(=O)c1ccc(N2CCCC2)c(NS(=O)(=O)c2cccs2)c1,-2,-9,1.1,-0.5,4.8,30,-2.8,6
CCc1nnc(NS(=O)(=O)c2ccc(N=Cc3c(C)[nH]n(-c4ccc(C)c(C)c4)c3=O)cc2)s1,43,0,0.8,-1.5,1.8,-33,-1.2,-5
COc1ccc(C)cc1NC(=O)CSc1ccc(-c2cccnc2)nn1,-2,-5,0.9,2.6,.,3,-1.1,-14
COc1ccc(/C=C2\Sc3ccc(C(=O)N4CCOCC4)cc3N(C)C2=O)cc1,-5,-5,-2.0,0.8,5.7,4,0.5,-9
Cc1cc(NC(=O)c2cc(-c3cccs3)on2)nn1Cc1ccc(Cl)cc1,.,-11,.,2.3,-3.9,19,.,-3
CC1=NNC(=O)C1C(c1ccc(Cl)cc1)C(C#N)C#N (configuration not stated),-4,-7,0.5,-2.7,.,-6,-3.2,-1
